Screening data deposited in PubChem BioAssay by PCMD.
Calb biofilm kill = mixtures killing C. albicans biofilm; C. albicans biofilm persisters + clotrimazole, fluorescence viability; primary screen in compound mixtures of four per well; inhibition, % at 7.6 µM; hit rate 0.02% among 120,000; AID 1242;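 active means inhibition above 30.3% in the primary screen of four-compound pools, then above 30% when the compound was retested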;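 further: compounds exposed to preformed 24 h biofilms for 48 h; the number belongs to the whole pool; some results filed as inactive read as strong as hits; inactives centre near 12; 0% = biofilm with clotrimazole alone and 100% = kill control; retested singly at about 60 µM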
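Probe or stimulus – Clotrimazole 50 µg/mL co-treatment · System – C. albicans biofilms · Schedule – 24 h biofilm formation, then 48 h compound exposure, 37 °C · Evaluation – percent inhibition of biofilm viability · Technique – 2-h Alamar Blue fluorescence, 535/590 nm excitation/emission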
Active calls of the source: *. Only part of the results is shown; rates above refer to the full screens.

SMILES | Calb biofilm kill
COc1ccc(/C=C2\C(=N\O)C3CCN2CC3)cc1 | 1
O=C(NC(Cc1cnc[nH]1)C(=O)O)c1ccccc1 (stereo not drawn) | 11
O=C(c1cc(F)ccc1F)C1CCCN(Cc2ccc3nonc3c2)C1 (stereo not drawn) | 17
COc1ccc(O)c(CN2CCCC(C(=O)c3sccc3C)C2)c1 (stereo not drawn) | 8
COCCCNC(=O)c1c(N)n(Cc2ccco2)c2nc3ccccc3nc12 | 29
CCC1(C)CC(CCNCc2ccc(N(C)C)cc2)(c2ccc(F)cc2)CCO1 (stereo not drawn) | 10
CSc1ccc(C(c2c(O)c3ccccc3oc2=O)c2c(C)n(C)n(-c3ccccc3)c2=O)cc1 (stereo not drawn) | 17
C=CCn1c(O)c(C(C)=NCc2ccc3c(c2)OCO3)c(=O)[nH]c1=O | 11
Cn1c(O)c(C=Nc2ccccc2Sc2ccccc2)c(=O)n(C)c1=O | 17
Fc1ccc(CNCCc2ccccc2F)cc1 | 4
O=c1[nH]c(=S)n(-c2ccccc2F)c(O)c1C=Nc1ccc(N2CCOCC2)cc1 | 1
CCOP(=O)(OCC)C(NC(=O)c1ccc(C)cc1)=C(Cl)Cl | 17
CN1CCc2nc(SCc3cccc(Br)c3)c(C#N)cc2C1 | 4
O=C(C[N+]12CCC(CC1)C(OC(=O)c1ccccc1)C2)c1ccc([N+](=O)[O-])cc1 (stereo not drawn) | 11
CN1c2ccc([N+](=O)[O-])cc2CC2(C(=O)NC(=O)N(c3ccc(Br)cc3)C2=O)C1c1ccccc1 (stereo not drawn) | 8
O=S(=O)(c1ccc(Cl)cc1)N1CCCC1c1cccnc1 (stereo not drawn) | 14
CCN1CCN(c2cc(N3CCCC3)c(F)cc2[N+](=O)[O-])CC1 | 22
CCOP(=O)(OCC)C(O)c1cccnc1 (stereo not drawn) | 11
COc1ccccc1N1C(=O)NC(=O)/C(=C/c2ccc3c4c(cccc24)CC3)C1=O | 11
O=c1[nH]c(O)c(N=Nc2cc([N+](=O)[O-])ccc2O)c(=O)[nH]1 | 25

Overlap with the part before: three entries, then new ones.
SMILES | Calb biofilm kill
CCOP(=O)(OCC)C(O)c1cccnc1 (stereo not drawn) | 11
COc1ccccc1N1C(=O)NC(=O)/C(=C/c2ccc3c4c(cccc24)CC3)C1=O | 11
O=c1[nH]c(O)c(N=Nc2cc([N+](=O)[O-])ccc2O)c(=O)[nH]1 | 25
CN(C)C(Cc1ccccc1)C(=O)c1cccs1 (stereo not drawn) | -13
O=C1NC(=O)N(c2ccccc2)C(=O)/C1=C/C=C/c1ccco1 | -3
COc1ccc(CCNC2CCCCC2)cc1OC | 11
COc1ccc(-n2cnc3cc(C(=O)N4CCC5(CC4)OCCO5)ccc32)cc1 | 10
CCOC(=O)C1CCN(/C=C2/C(=O)NC(=S)N(c3cccc(OC)c3)C2=O)CC1 | 23
O=c1[nH]c(=O)n(Cc2ccccc2)c(O)c1/C=N/Nc1c(F)c(F)c(F)c(F)c1F | 18
CCC12CN3CCN(CC(C3)C1O)C2 (stereo not drawn) | 14
CN(C)c1ccc(/C=C2\C(=O)NC(=O)N(Cc3ccc(F)cc3)C2=O)cc1 | 16
O=C(Nc1ccccc1)c1cc([N+](=O)[O-])ccc1N1CCNCC1 | 4
CCOP(=O)(OCC)C(O)c1ccc(OC)cc1 (stereo not drawn) | 10
CN1CCN(c2ccc([N+](=O)[O-])c(NCc3ccco3)c2)CC1 | 7
COc1ccc(CCN)cc1OC | 10
CCCC(C)n1[nH]c(=O)c2c1NC(=O)CSC2c1ccccc1 (stereo not drawn) | 30
COc1cc(CN=Cc2c(O)n(C(C)(C)C)c(=O)[nH]c2=O)cc(OC)c1 | 11
Cc1nn(Cc2ccccc2)c(Cl)c1C(=O)OC(C)C(=O)Nc1ccc(F)cc1Cl (stereo not drawn) | 12
CCC(=NCCC(c1ccccc1)c1ccccc1)c1c(O)[nH]c(=O)[nH]c1=O | 7
CCCCn1c(O)c(C(C)=Nc2ccc3c(c2)CCC3)c(=O)[nH]c1=O | 18
O=Cc1c(C(=O)O)n(Cc2ccccc2Cl)c2ccccc12 | 14
c1ccc2c3c([nH]c2c1)C1(CCNCC1)NCC3 | 9
CC(c1ccccc1)(c1ccccc1)c1ccncc1 | -2
CC(C(=O)c1ccc2ccccc2c1)N1CCCCC1 (stereo not drawn) | 13
CCOc1ccc(CC2(CCc3ccncc3)C(=O)NC(=O)NC2=O)cc1 | 8
O=C(c1ccc(Cl)cc1)C1CCCN(Cc2ccc3c(c2)OCCO3)C1 (stereo not drawn) | 19
Cc1ccc(-c2nn(Cc3ccccc3)cc2C(=O)O)cc1 | 19
CC(Cc1ccccc1)NC(=O)Cc1ccc(N(C)C)cc1 (stereo not drawn) | 16
COC(=O)C1=Nc2ccccc2/C1=C\c1c(O)n(C)c(=O)n(C)c1=O | 21
Cc1cccc(C)c1OP(N)(=O)OCC(F)(F)F (stereo not drawn) | 5
CCOP(=O)(OCC)C(NC(=O)Cc1ccccc1)C(Cl)(Cl)Cl (stereo not drawn) | 5
CN1CCN(c2nc(N)cc(=O)[nH]2)CC1 | 11
Fc1ccc(C2NCCc3[nH]cnc32)cc1 (stereo not drawn) | 10
CCOc1cccc(=NC2CCCCC2)c2c(C)n(C)c(C)c12 | 15
CCC1(C(=O)c2ccc(C)cc2)C2c3ccccc3OC(=O)C21C(=O)O (stereo not drawn) | 9
CCc1ccc(N2C(=O)NC(=O)/C(=C\c3cccn3CCOc3ccc(C(C)C)cc3)C2=O)cc1 | 11
Cc1ccc(-n2c(/C=C/c3ccc4c(c3)OCO4)nc3ccccc3c2=O)cc1 | 14
N#Cc1ccc(OCC(=O)N2CCN(Cc3ccc4c(c3)OCO4)CC2)cc1 | 8
CCOc1c(Cl)cc(CNCCc2c[nH]c3ccccc23)cc1OC | 13
Cc1ccc(C(C)C)c(OCC(=O)N2CCN(Cc3nc4cc([N+](=O)[O-])ccc4n3C)CC2)c1 | 14
Cc1cccc(CN2CCCC(C(=O)c3cccc(OC(C)C)c3)C2)n1 (stereo not drawn) | 15
O=C(c1ccccc1)C(CN1CCCC1)c1ccccc1 (stereo not drawn) | 9
COc1ccc(OCC(=O)N2CCN(Cc3ccc4c(c3)OCO4)CC2)cc1 | 16
CSc1ncc(CN2CCCC(C(=O)c3ccccc3SC)C2)cn1 (stereo not drawn) | 32
N/C(=N\[N+](=O)[O-])N1CCN(C(=O)c2ccccc2)CC1 | 3
Clc1ccc(OCC#CCN2CCCC2)cc1 | -23
CCOP(=O)(OCC)C(NC(=O)c1ccccc1)C(Cl)(Cl)Cl (stereo not drawn) | 18
N#Cc1c(N2CCNCC2)nc(-c2ccco2)c2c1CCCC2 | 14
O=c1[nH]c(=O)n(-c2cccc3ccccc23)c(O)c1/C=N/N1CCCCC1c1cccnc1 (stereo not drawn) | 8
O=C(c1cn(Cc2ccccc2)c2ccccc12)C1CC1 | 22
COC(=O)[C@]1(C)C[C@H]1[C@H](NP(=O)(c1ccccc1)c1ccccc1)c1ccccc1 | 2
CCCCCCNc1nc(OC)nc(N2CC3CC(C2)c2cccc(=O)n2C3)n1 (stereo not drawn) | 14
O=C1OC(c2ccc([N+](=O)[O-])cc2)=N/C1=C/N1CC2CC(C1)c1cccc(=O)n1C2 (stereo not drawn) | 21
COC1C(OC(=O)c2ccc(C)[nH]2)C(O)C(Oc2ccc3c(O)c(NC(=O)c4ccc(O)c(CC=C(C)C)c4)c(=O)oc3c2Cl)OC1(C)C (stereo not drawn) | 10
CCCNC(=O)N1CCC2(CC1)OCCO2 | 2
CC(=O)Nc1nc(CCl)cs1 | 6
COC(=O)C1C=C2c3cccc4[nH]cc(c34)CC2N(C)C1 (stereo not drawn) | 3
COc1ccc(/C=N\N=C(N)N)cc1 | 20
CCC(=NCCCN1CCOCC1)c1c(O)n(-c2ccccc2C)c(=O)[nH]c1=O | 20
CC(C)(C)NC(=O)NC(=O)CN1CC=C(c2ccccc2)CC1 | 9
CCOC(=O)C(O)(c1ccc(N=Cc2ccccc2O)c(C)c1)C(F)(F)F (stereo not drawn) | 8
Cc1ccc(C(O)(C(=O)NNC(=O)CN2CCN(C)CC2)c2ccc(C)cc2)cc1 | 17
O=C1NC2NC(=O)N([N+](=O)[O-])C2N1 (stereo not drawn) | 19

Going on with the list.
SMILES | Calb biofilm kill
COc1cccc(-n2c(CN3CCN(C)CC3)nc3ccc([N+](=O)[O-])cc3c2=O)c1 | -8
COc1cc(/C=C2\C(=O)NC(=O)N(c3ccccc3)C2=O)c([N+](=O)[O-])cc1OC | 5
CC[C@@]1(O)C(=O)OCc2c1cc1n(c2=O)Cc2cc3c(NC(=O)CN)cccc3nc2-1 | 5
O=C(c1c[nH]cc1-c1ccccc1)c1cccc2ccccc12 | 18
O=C1CC(=O)N(c2ccc(Cl)cc2Cl)C(=O)N1 | 22
CCCC1C(C#N)=C(N)Oc2c1c(=O)oc1ccccc21 (stereo not drawn) | 4
CCOC(=O)C(NC(C)=O)C(OC(C)=O)c1cccc(N(CCCl)CCCl)c1 (stereo not drawn) | 13
Cc1ccccc1-n1c(O)c(/C=N/NC(=O)c2ccncc2)c(=O)[nH]c1=O | 2
C=CCn1c(O)c(C(CC)=NCCc2c[nH]c3ccccc23)c(=O)[nH]c1=O | 28
CSc1ccccc1C(=O)C1CCCN(Cc2ccccn2)C1 (stereo not drawn) | 14
O=C1CN=C(c2ccccc2F)c2cc(Cl)ccc2N1 | 8
COc1ccc(CNC(=O)/C=C/c2ccc3[nH]cc(CCN(C)C)c3c2)cc1 | 19
CCn1c(O)c(C=NCc2ccccc2)c(=O)[nH]c1=S | 1
O=C1NC(=O)C(CCc2ccncc2)(Cc2cccc(Cl)c2Cl)C(=O)N1c1ccc(Br)cc1 (stereo not drawn) | 17
Cc1ccc(OCC(=O)Nc2ccc(Cl)cc2C(=O)c2ccccc2)cc1 | 2
Cc1ccccc1NC(=O)CCl | 21
C[n+]1c(-c2ccccc2)cc(-c2ccc(O)cc2)cc1-c1ccccc1 | 11
O=C(c1cccc(C(F)(F)F)c1)C1CCCN(Cc2ccccc2O)C1 (stereo not drawn) | 9
CCC(C)C1(CC)C(=O)NC(=O)N=C1N (stereo not drawn) | 14
Cc1ccc(C2=NC(C)(C)N3C2C3c2ccc([N+](=O)[O-])cc2)cc1 (stereo not drawn) | 8
CC[N+](C)(CC)CCCOC(=O)C(O)(c1ccccc1)C1CCCCC1 (stereo not drawn) | 14
C[C@H]1C[C@@H](C)C(=O)[C@@H]([C@H](O)CC2CC(=O)NC(=O)C2)C1 | 10
NCCc1ccc(S(N)(=O)=O)cc1 | 19
CCOc1cc(CNCCc2c[nH]c3ccccc23)cc(Cl)c1OC | 5
CN1CC(C(=O)c2ccc(Cl)cc2)C(c2ccc(N(C)C)cc2)C1 (stereo not drawn) | 19
O=c1c2ccccc2nc(-c2ccccc2)n1-c1nccs1 | 14
O=C1/C(=C\c2cc3c(cc2Cl)OCO3)N2CCC1CC2 | 19
O=c1oc2ccccc2c(O)c1C(c1ccccn1)c1c(O)c2ccccc2oc1=O | 7
COc1ccc(C(C)=O)cc1CC(C(=O)c1ccc(C)cc1)N(C)C (stereo not drawn) | 16
O=c1[nH]c(O)c(N=Nc2ccc3c(c2)OCCO3)c(=O)[nH]1 | 10
CCCCn1c(=O)c(C(=O)NCc2ccco2)c(O)c2ccccc21 | 11
CC(C)OC(=O)C1C2c3ccccc3C(c3ccccc32)C1C(=O)O (stereo not drawn) | -6
O=C1CC(c2cccnc2)=NN1c1ccccc1 | -2
CN1CCc2nc(SCc3ccccc3Br)c(C#N)cc2C1 | -24
Cc1ccc(S(=O)(=O)N2CCCC2c2cccnc2)cc1 (stereo not drawn) | 15
CC1CCC(C(C)C)C(OC(=O)COC(=O)c2ccccc2N)C1 (stereo not drawn) | 9
C=CCN1CC[C@]23c4c5ccc(O)c4O[C@H]2C(=O)CC[C@@]3(O)[C@H]1C5 | 7
CN(C)CC#CCn1c2ccccc2c2ccccc21 | 15
COc1ccc(C(O)c2ccccc2OP(=O)(N(C)C)N(C)C)cc1 (stereo not drawn) | 12
CCc1nnc(NS(=O)(=O)c2ccc(N=Cc3c(O)n(-c4ccccc4)c(=O)[nH]c3=O)cc2)s1 | 8

Quoted at random: three records from the list
SMILES | Calb biofilm kill
COc1ccc(C(O)c2ccccc2OP(=O)(N(C)C)N(C)C)cc1 (stereo not drawn) | 12
COc1ccc(C(C)=O)cc1CC(C(=O)c1ccc(C)cc1)N(C)C (stereo not drawn) | 16
O=C1/C(=C\c2cc3c(cc2Cl)OCO3)N2CCC1CC2 | 19

Another view of 3 compounds above.
compound,Calb biofilm kill
O=C1CC(c2cccnc2)=NN1c1ccccc1,-2
CN1CCc2nc(SCc3ccccc3Br)c(C#N)cc2C1,-24
Cc1ccc(S(=O)(=O)N2CCCC2c2cccnc2)cc1 (stereo not drawn),15

Following part.
SMILES | Calb biofilm kill
COc1cc(C)cc(CN2CC=C(c3ccccc3)CC2)c1O | 16
COc1cc([C@@H]2c3cc4c(cc3[C@@H](OC)[C@H]3COC(=O)[C@H]23)OCO4)cc(OC)c1O | 16
O=P(Nc1cccnc1)(Oc1ccccc1Cl)Oc1ccccc1Cl | 12
C[C@@H]1C2C[C@@]34COC(=O)C3=CC=C[C@H]4[C@@]13C[C@H](c1ccoc1)O[C@@H]3O2 | 5
CN(C)c1nc(N(C)C)nc(N(C#N)CCCl)n1 | 6
COc1ccc(CC2(CCc3ccncc3)C(=O)NC(=O)NC2=O)cc1 | 7
COc1ccc(C(O)P(=O)(OC(C)C)OC(C)C)cc1 (stereo not drawn) | 16
CN(C)CCn1cnc2ccccc21 | 24
O=C1NC(=O)N(c2ccc3c(c2)OCO3)C(=O)/C1=C/c1cccs1 | 16

Quoted from the listing.
Result for COc1cc([C@@H]2c3cc4c(cc3[C@@H](OC)[C@H]3COC(=O)[C@H]23)OCO4)cc(OC)c1O in Calb biofilm kill: 16
Result for O=C1NC(=O)N(c2ccc3c(c2)OCO3)C(=O)/C1=C/c1cccs1 in Calb biofilm kill: 16
